Bioassay records as filed in PubChem BioAssay.
TRPML1 blocker: human mucolipin-1 channel inhibition. activity change, negative = inhibition, % (test concentration not listed). 390,000 compounds, 0.02% hits. AID 624415. TRPML1-inducible cells, Ca2+ dye fluorescence, FDSS; stronger effect = lower value; inhibition of EC80 agonist-evoked calcium signal. Q9GZU1; in the data active means activity change below about -50%; inconclusive means about -30% to -50%; inactive means above about -30%;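 also: stimulus is agonist 54-4 at its EC80 concentration; % is scaled to controls: 0 for no effect and ±100 for the full control effect; compound concentration not given in the record; the text of the record puts the active cut at -80%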
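Calcium fluorescence in TRPML1-DL cells induced overnight with Tet: a 110 s read after compound pin addition, then a 110 s antagonist read after challenge with 54-4 at 4 uM final (EC80).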
Six1-Eya2 blk: blocks human Six1 binding to Eya2. Q15475+O00167. AlphaScreen GST-Six1/His-Eya2 binding, biochemical; stronger effect = lower value; control for the full effect not named in the record. activity change, % (no concentration beside the values). 360,000 compounds, 0.56% hits. AID 651725; in the data active = activity change below about -65%; inconclusive = about -30% to -65%; inactive = above about -30%; also: % is scaled to controls: 0 for no effect and ±100 for the full control effect
Target sequence (O00167 whole entry, looked up): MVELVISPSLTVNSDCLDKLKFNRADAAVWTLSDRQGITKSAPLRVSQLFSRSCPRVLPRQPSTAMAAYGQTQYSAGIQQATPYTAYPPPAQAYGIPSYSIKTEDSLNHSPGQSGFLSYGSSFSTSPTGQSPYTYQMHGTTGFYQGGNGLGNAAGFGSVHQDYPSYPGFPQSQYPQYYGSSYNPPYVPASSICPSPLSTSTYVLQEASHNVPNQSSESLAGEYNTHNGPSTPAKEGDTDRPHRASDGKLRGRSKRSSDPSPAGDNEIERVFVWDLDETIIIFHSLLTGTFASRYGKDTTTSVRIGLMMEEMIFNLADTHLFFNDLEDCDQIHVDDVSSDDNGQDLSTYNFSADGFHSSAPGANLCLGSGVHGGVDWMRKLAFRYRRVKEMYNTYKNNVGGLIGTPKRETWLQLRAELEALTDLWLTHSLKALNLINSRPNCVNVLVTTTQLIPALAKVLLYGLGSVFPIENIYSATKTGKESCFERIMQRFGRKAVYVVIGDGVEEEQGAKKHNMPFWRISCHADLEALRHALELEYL
Target sequence (Q15475 whole entry, looked up): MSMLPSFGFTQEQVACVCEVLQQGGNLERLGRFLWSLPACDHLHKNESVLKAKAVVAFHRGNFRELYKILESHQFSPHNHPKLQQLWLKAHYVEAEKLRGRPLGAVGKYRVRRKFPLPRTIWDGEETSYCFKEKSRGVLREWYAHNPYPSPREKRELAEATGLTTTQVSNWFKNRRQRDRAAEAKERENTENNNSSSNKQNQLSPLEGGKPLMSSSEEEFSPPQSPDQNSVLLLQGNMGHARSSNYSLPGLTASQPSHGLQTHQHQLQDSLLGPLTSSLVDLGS
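Homogeneous AlphaScreen proximity assay pairing GST-Six1 with His-tagged Eya2 (added as 5X mix: 250 nM and 500 nM) in 50 mM Tris pH 8.0, 300 mM NaCl, 1 mM TCEP. Glutathione donor and nickel acceptor beads; 1 h, 37 °C, dark.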
PINK1 modulator: modulators of PINK1 expression; PINK1 immunofluorescence, high-content cytometry, 24 h; Potency, µM (doses to about 76.6 µM), inactives show top-dose activation (PINK1 increase), usual class: activators; 410,000 compounds, 0.2% hits; AID 624263; active = well fitted activation curve with a large enough effect; inconclusive = small, poorly fitted or top-dose-only effect; inactive = flat fitted curve, though single readings scatter; cell line not stated here;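 also: potency is read from the fitted curve at half-maximal effect; % of control where 0% means no effect; nearly all actives have a fitted effect of over 65% in size; a mitochondrial uncoupler was the plate control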
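Decision-based qHTS: stable cells, 24 h exposure to five compound concentrations, CCCP as control. Fixed cells stained for PINK1 plus nuclear, mitochondrial and cell markers, cytometer read.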
D2 ag: activates the human D2 dopamine receptor. P14416. DiscoveRx PathHunter D2 beta-arrestin, luminescence, 90 min; 100% = 57 uM dopamine signal. activation, % (no concentration beside the values). 360,000 compounds, 0.084% hits. AID 624465; in the data active = activation above about 40%; inconclusive = about 15% to 40%; inactive = below about 15%; also: compound concentration not given in the record; the text of the record calls up to 30% inactive
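Agonist mode: compounds alone added to overnight-plated D2 PathHunter cells for 90 min at 37 C, with 57 uM final dopamine (EC100) defining full response. Beta-arrestin recruitment detected by chemiluminescent reagent, read after 1 h at ambient temperature.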
CtBP-E1A inh: CtBP/E1A binding inhibition. AlphaScreen GST-E1A/His-CtBP binding, 1536-well; stronger effect = lower value; control for the full effect not named in the record. activity change, % (no concentration beside the values). 340,000 compounds, 0.49% hits; in the data active means activity change below about -65%; inconclusive means about -30% to -65%; inactive means above about -30%; also: % is scaled to controls: 0 for no effect and ±100 for the full control effect
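GST-E1A and His-tagged CtBP (125 nM each as 5X stock) were preincubated with pin-transferred compound for 2 h at 37 °C in the dark, then glutathione donor and nickel acceptor beads were added for 1 h before AlphaScreen reading.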
TRPML1 agonist: agonists of human TRPML1 channel | TRPML1-expressing cells, Ca2+ dye fluorescence, FDSS; host cell line not named in the record; reference of the full effect not given here | Q9GZU1 | 410,000 compounds, 0.12% hits | activation, % (no concentration beside the values); in the data active = activation above about 50%; inconclusive = about 30% to 50%; inactive = below about 30%; also: 0% is about no effect; the text of the record puts the active cut at 80%
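Tet-induced TRPML1-DL cells, 1,500 per well, cultured overnight, were loaded with a no-wash Ca2+ dye for 45–90 min. Calcium fluorescence was recorded on the FDSS for 110 s after compound addition, before the EC80 agonist (4 uM 54-4) was added.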
* marks the source's active call; other numbers are inactive results; ? = inconclusive; nt = not tested or not shown; [ ] = another dose, or the depositor's remark.

SMILES	TRPML1 blocker	Six1-Eya2 blk	PINK1 modulator	D2 ag	CtBP-E1A inh	TRPML1 agonist
COc1ccc(C(=O)NCCc2c[nH]c3ccccc23)cc1[N+](=O)[O-]	23	-14	-0.9%	-2.4	-15	0.6
C/C(CC(=O)NCc1ccccc1Cl)=N/NC(=O)c1ccccn1	-1	9	-1.3%	-1.4	-24	0.1
COc1ccc(-c2cc(-c3ccccc3O)[nH]n2)cc1	1	17	-1.3%	-2.0	0	-0.2
Cn1c(=O)n(C)c2cc(N3CCOCC3)c(NS(=O)(=O)c3ccc(Cl)cc3)cc21	16	nt	-0.5%	nt	nt	0.9
COc1ccccc1NC(=O)c1nnn(CC(=O)Nc2ccccc2)c1N	-11	3	0.5%	-0.5	-1	-0.6
Cc1nc(SCC(=O)O)c2oc3ccccc3c2n1	-9	-4	-3.1%	-2.3	-5	-0.5
O=C(Nc1cccc(S(=O)(=O)N2CCOCC2)c1)c1ccc2ccccc2n1	11	-14	-0.6%	-3.8	nt	0.0
O=C(NCC1CCCN1S(=O)(=O)c1cccs1)c1ccc([N+](=O)[O-])cc1 (centres undefined)	-11	-7	-1.2%	1.2	-6	-0.5
O=C(O)c1ccc2cc[nH]c2c1	-4	1	1.0%	-0.3	6	-0.3
NC(=S)NN=Cc1ccc(-c2ccc(S(=O)(=O)Nc3ncccn3)cc2)o1	-1	?	0.2%	-0.4	-3	-0.1
CCCC(C)C(=O)NCc1ccccc1OC (centres undefined)	0	7	2.9%	-1.8	6	-0.4
CC(=O)c1cccc(NC(=O)CCNS(=O)(=O)c2cccc(C(C)=O)c2)c1	-1	19	-1.3%	-1.5	0	-1.0
O=C(c1ccc(N2CCC3(CC2)OCCO3)c([N+](=O)[O-])c1)N1CCOCC1	8	1	-0.5%	-3.5	-2	1.1
Cn1ncc2c(Nc3ccccc3Cl)nc(Cl)nc21	8	-7	-1.8%	0.1	-7	0.2
O=C(Nc1cccn2ncnc12)C(Cl)Cl	-3	1	0.5%	-1.3	5	-0.1
Cc1cc(C)n2c(SCC(=O)Nc3ccccc3C#N)nnc2n1	9	-11	2.1%	-2.4	-4	-0.6
CC(C)(C)NC(=O)C(c1c[nH]c2ccccc12)N(C(=O)Cn1nnc(-c2ccc(F)cc2)n1)c1cccc(O)c1 (centres undefined)	5	-14	23%	1.3	0	0.1
O=C(Cn1c(=S)[nH]c2ccccc21)c1ccccc1	-18	-1	0.7%	0.9	0	2.2
COc1ccccc1N1CCN(/N=C/C(Cl)=C/c2ccccc2)CC1	1	?	2.7%	-1.5	-26	1.1
Cc1cccc(NC(=S)NC(=O)/C=C/c2ccco2)c1	18	-17	-0.6%	-1.3	-17	0.3
CC(C)Cn1c(N)c(C(=O)COC(=O)c2cccn2C)c(=O)n(C)c1=O	-10	-2	1.0%	2.6	nt	-0.4
CN(Cc1cccc(F)c1)C(=O)c1cc(S(=O)(=O)N2CCOCC2)ccc1N1CCCC1	37	2	0.3%	1.8	-5	5.2
CC(Oc1ccc(C(=O)NCCc2ccccc2)cc1)C(=O)O (centres undefined)	-7	6	-2.3%[38.3 µM]	-0.6	6	0.3
CC(C)c1ccc(NC(=O)Cn2c3ncccc3c(=O)n2-c2ccccc2)cc1	-14	nt	3.4%	nt	nt	-0.9
O=C1NN(c2cccc(Br)c2)C(=O)/C1=C\c1ccc(O)cc1	-5	-1	1.0%	-5.3	nt	-0.5

Retrieved one by one from above, 3 records:
SMILES	TRPML1 blocker	Six1-Eya2 blk	PINK1 modulator	D2 ag	CtBP-E1A inh	TRPML1 agonist
CC(C)(C)NC(=O)C(c1c[nH]c2ccccc12)N(C(=O)Cn1nnc(-c2ccc(F)cc2)n1)c1cccc(O)c1 (centres undefined)	5	-14	23%	1.3	0	0.1
O=C1NN(c2cccc(Br)c2)C(=O)/C1=C\c1ccc(O)cc1	-5	-1	1.0%	-5.3	nt	-0.5
O=C(Nc1cccn2ncnc12)C(Cl)Cl	-3	1	0.5%	-1.3	5	-0.1

(more compounds)
SMILES	TRPML1 blocker	Six1-Eya2 blk	PINK1 modulator	D2 ag	CtBP-E1A inh	TRPML1 agonist
Cc1ccc(NC(=O)CCc2nnc3ccc(NCc4ccco4)nn23)cc1F	32	-11	2.6%	-2.4	-18	-0.8
Cn1cc(C(=O)N/N=C/c2ccc3c(c2)OCO3)c2ccccc21	-8	16	-1.5%	-2.2	21	0.6
C=CCNC(=O)c1onc(CSc2ccccc2C)c1C(=O)O	-2	0	-0.3%	0.0	-1	-0.7
COc1ccc(Nc2c3c(nc4c(-c5ccccc5)c(C)nn24)CCC3)cc1	13	11	-0.8%	-1.9	5	1.4
COc1ccc(C/C(N)=N/OC(C)=O)cc1OC	5	-2	1.0%	4.3	-13	-0.8
O=C(Cc1ccc(NC(=O)N2CCCCc3ccccc32)cc1)NCc1ccccc1Br	-4	nt	-1.9%	nt	nt	-0.2
CC(C)(C)NC(=O)C(=O)NN=C1CCCCCCC1	-7	15	-0.3%	3.9	4	0.1
O=C(NCc1ccc2c(c1)OCO2)C(=O)NCC1CCCO1 (centres undefined)	-13	14	-0.7%	-2.8	2	-0.1
COc1ccc(OCC(=O)Nc2cccc(-c3nc4ccccc4o3)c2)cc1	-2	-2	?	-4.2	3	2.2
CC1=C(C(=O)N(C(C)C)C(C)C)CC(CC(=O)NCC2CCCCC2)C(=O)N1Cc1ccc(F)cc1 (centres undefined)	nt	5	0.9%	1.1	1	-0.8
CN1CCN(S(=O)(=O)c2cccc(C(=O)Oc3cccc(Br)c3)c2)CC1	41	?	0.6%	-4.5	-7	2.0
COC(=O)c1cc(Br)c(=O)n(-c2ccccn2)c1	8	15	-2.2%	0.5	-1	-0.3
Cc1ccc(CNc2cc(C)nc3nc(-c4ccc(C)cc4)nn23)cc1	13	nt	25%	nt	nt	1.7
COc1ccc(NC(=O)CSc2nnc(-c3cccs3)n2N)c(OC)c1	-8	1	-0.6%	2.3	5	-0.9
O=C(CCC(=O)N1CCOc2ccccc21)NCCCN1CCN(Cc2ccccc2)CC1	-5	-1	0.9%	-3.6	9	-0.2
CC(C)(CNS(=O)(=O)c1ccc(Br)s1)N1CCOCC1	-23	2	3.4%	-1.2	4	2.3
O=C(COc1ccc(/C=N/NC(=O)c2ccc(O)cc2)cc1)Nc1ccc([N+](=O)[O-])cc1	-11	-1	-0.5%	1.2	4	2.3
CC(C)[C@H](NC(=O)c1ccco1)C(=O)OCC(=O)c1ccc2c(c1)NC(=O)CO2	-3	-19	0.3%	-0.7	-10	0.1
O=C(Cn1c(=O)sc2ccccc21)N1CCOCC1	11	4	nt	-2.9	3	0.5
CCc1ccc(NC(=O)Cn2nc(SC)c(S(=O)(=O)c3ccc(OC)cc3)c2N)cc1	38	nt	6.2%	nt	nt	1.5
Cc1ccn2cc(C34CC5CC(CC(C5)C3)C4)nc2c1	-11	-6	-0.5%	-0.7	-13	4.0
COc1ccc(NC(=O)Cc2cccc(F)c2)cc1S(=O)(=O)Nc1ccccc1Cl	3	0	0.0%	0.9	-3	1.1
Cc1ccc(C(=O)N/C(=C/c2cccs2)C(=O)NCCc2c[nH]c3ccccc23)cc1	27	-26	1.1%	-2.5	-20	2.0
COc1ccc(CCNC(=O)CN(CCc2ccccc2)S(C)(=O)=O)cc1OC	-5	24	-0.7%	-8.9	1	0.2
O=C(Nc1cccc(S(=O)(=O)N2CCCC2)c1)c1cccc(OC(F)F)c1	31	-10	-0.2%	-0.4	0	4.9

Later entries:
SMILES	TRPML1 blocker	Six1-Eya2 blk	PINK1 modulator	D2 ag	CtBP-E1A inh	TRPML1 agonist
Cc1ccc(S(=O)(=O)N(C)C)cc1NC(=O)C1CCC1	27	-1	-0.5%	-1.5	-1	0.4
CC1=C/C(=C/N(C)C)C(=O)O1	11	-5	-0.1%	-3.7	nt	0.3
CCOC(=O)c1c(C)oc2c(CC(=O)c3ccccc3)c(Cl)c(O)c(O)c12	8	-3	13%	1.1	-24	-0.2
COC(=O)c1ccc2ccn(CC(=O)NC3CCCCC3)c2c1	-2	3	1.5%	-1.3	3	0.8
CCN1CCN(C(=O)c2cc3c(-c4ccc(Cl)cc4)nn(C)c3s2)CC1	-6	-23	11%	1.5	-17	-0.2
CC(O)CNc1nc2c(c(=O)n(Cc3ccc(Br)cc3)c(=O)n2C)n1C (centres undefined)	nt	-2	-0.4%	5.9	nt	nt
COc1ccc(-c2noc(CSc3nc(N)c(-c4ccccc4)c(=O)[nH]3)n2)cc1	72	-5	?	1.5	2	0.7
COc1cc(NC(=O)C2CCN(c3nnc(C)c4c(C)n(-c5ccccc5)nc34)CC2)cc(OC)c1	41	nt	0.3%	nt	nt	3.1
O=C(OCCN1CCCC1=O)c1cncc(Br)c1	8	5	1.6%[38.3 µM]	-1.2	9	0.7
CCCC(=O)N1CCN(c2ccc(NC(=O)c3sc4ccccc4c3Cl)cc2)CC1	24	0	3.9%	-1.9	-6	3.1
CCCNC(=O)C1(CC2CC(c3ccccc3)=NO2)CCN(C(=O)CCCCCBr)CC1 (centres undefined)	-21	14	1.0%	0.3	0	-0.9
O=C(O)/C=C\C(=O)NNC(=O)c1cc(-c2ccccc2)n[nH]1	-15	6	-3.9%	-0.5	-3	0.3
CCc1cccc(NC(=O)CCSCCC(=O)Nc2cccc(CC)c2)c1	6	1	0.2%	0.0	1	-0.7
N#Cc1c(-c2ccccc2)cc(-c2ccccc2)[nH]c1=O	1	5	-0.9%	-7.8	nt	4.8
CN=C(Nc1cc(C)nn1-c1ccccc1)c1ccccc1	-3	3	-0.3%[38.3 µM]	2.5	4	-0.1
Cc1ccc(C)c(NC(=O)COC(=O)c2nn(C)c(=O)c3ccccc23)c1	23	5	-0.3%	-4.0	-1	0.5
COc1cccc(/C=C/C(=O)OCC(=O)Nc2ccc(Cl)c(S(=O)(=O)N(C)C)c2)c1OC	14	-1	0.2%	5.2	0	1.3
O=C(C1=C(O)C(=O)N(Cc2ccco2)C1c1ccccc1)c1cccs1 (centres undefined)	2	-1	-0.4%	-1.6	-1	1.0
COc1ccc(CNC(=O)Nc2nnc([C@@H]3C[C@H](O)[C@@H](CO)O3)s2)cc1	nt	-4	2.3%	-5.4	-10	-0.4
O=C(Nc1ccc(F)cc1)c1cn(-c2ccccc2)nc1-c1ccncc1	-2	2	0.9%	2.7	1	1.5
CNC(=O)C[C@H]1C(=O)N(c2ccccc2)C[C@@H]1CSC	nt	4	-0.1%	-0.7	0	nt
COc1ccccc1C(C)Nc1ccc(S(=O)(=O)N2CCN(C)CC2)cc1[N+](=O)[O-] (centres undefined)	-14	?	-0.5%	-3.3	nt	-0.7
CCOC(=O)c1c(/N=C/C2=C(O)CCCC2=O)sc(C)c1C	-2	21	4.8%	2.2	1	-0.3
COC(=O)COc1cccc(NS(=O)(=O)c2cccc([N+](=O)[O-])c2)c1	10	9	4.7%	0.2	5	-0.5
COc1ccccc1NC(=S)N1CCn2cccc2C1c1cccnc1 (centres undefined)	-4	-8	-0.3%	-6.9	-13	-0.7
CN(CC(=O)Nc1ccc(F)cc1)C(=O)CSc1nncs1	15	7	4.3%	-4.6	-1	-0.1
